High-throughput results as filed in PubChem.
TRPV1 potentiator: human TRPV1 potentiation | actives 0.02% (n = 320,000) | TRPV1-expressing cells, Fluo-8 calcium influx, capsaicin EC20 potentiation; host cell line not named in the record; control for the full effect not named in the record | Q8NER1 | AID 540277 | potentiation, % at 8.33 µM; active means potentiation above 80%; inconclusive means 30% to 80%; inactive means below 30%; also: 0% is about no effect
Target sequence (Q8NER1 whole entry, looked up): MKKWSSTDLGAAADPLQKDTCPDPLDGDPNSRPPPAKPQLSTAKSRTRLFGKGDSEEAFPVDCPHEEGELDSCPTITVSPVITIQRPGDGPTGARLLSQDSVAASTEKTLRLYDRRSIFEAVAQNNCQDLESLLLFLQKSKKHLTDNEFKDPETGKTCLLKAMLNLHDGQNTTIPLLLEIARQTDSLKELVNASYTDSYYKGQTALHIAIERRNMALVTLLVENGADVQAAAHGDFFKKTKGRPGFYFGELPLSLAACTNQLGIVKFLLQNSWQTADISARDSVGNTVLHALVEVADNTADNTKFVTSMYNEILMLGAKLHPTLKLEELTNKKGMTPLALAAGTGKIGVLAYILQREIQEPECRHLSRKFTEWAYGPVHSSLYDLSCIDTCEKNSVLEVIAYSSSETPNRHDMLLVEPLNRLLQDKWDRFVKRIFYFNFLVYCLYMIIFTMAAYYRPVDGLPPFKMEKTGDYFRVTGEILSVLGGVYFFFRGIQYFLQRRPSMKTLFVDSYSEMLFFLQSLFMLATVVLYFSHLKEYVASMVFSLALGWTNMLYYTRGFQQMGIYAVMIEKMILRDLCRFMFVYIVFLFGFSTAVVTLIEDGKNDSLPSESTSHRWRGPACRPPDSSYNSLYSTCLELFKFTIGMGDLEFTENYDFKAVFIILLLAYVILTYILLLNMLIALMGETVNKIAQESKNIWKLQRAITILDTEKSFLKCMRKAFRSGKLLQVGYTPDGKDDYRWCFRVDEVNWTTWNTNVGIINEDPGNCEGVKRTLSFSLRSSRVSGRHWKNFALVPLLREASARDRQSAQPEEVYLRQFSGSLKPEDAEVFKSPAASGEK
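TRPV1-expressing cells were cultured overnight at 35.5C and loaded with Fluo-8 calcium dye for 40 to 90 min at room temperature. After a 10 s baseline, compound was added and calcium influx was read kinetically for 3 min (ex 480/em 520 nm).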
D2 potentiator: positive allosteric modulators of human D2 dopamine receptor; actives 0.23% (n = 360,000); potentiation, % (concentration not given with the values); P14416; DiscoveRx D2 beta-arrestin cells, luminescence, 90 min; 100% = 57 uM dopamine signal; active = potentiation of 50% or more; inconclusive = 30% to 50%; inactive = 30% or less;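 also: compound concentration not given in the record; tested on top of an EC20 dose of dopamine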
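PathHunter beta-arrestin assay in DiscoveRx D2 cells. Compounds were added with an EC20 of dopamine (50 nM final) for 90 min at 37 deg C. Luminescence was read 1 h after detection reagent, with 57 uM dopamine as the EC100 control.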
Sfp PPTase inh: inhibitors of Bacillus subtilis Sfp phosphopantetheinyl transferase. Q9F4F7. Biochemical Sfp PPTase activity, qHTS. Potency, µM, for the others: max response, negative = inhibition, hits mostly inhibitors. actives 3.5% (n = 310,000); active = well fitted inhibition curve with a large enough effect; inconclusive = small, poorly fitted or top-dose-only effect, or another doubt; inactive = no such curve, though single readings can be large or run the other way;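 also: the enzyme is Sfp with the accession as filed and its product quenches rhodamine fluorescence; potency is read from the fitted curve at half-maximal effect; 0% = enzyme reaction without inhibitor and -100% = no enzyme wells; top concentration of the series not given in the record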
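With Hepes-Na pH 7.6 buffer containing 10 mM MgCl2, Sfp (15 nM) modified BHQ-2-YbbR (12.5 uM) using rhodamine-CoA (5 uM). Two reads 30 minutes apart at 525/598 nm yielded each well's rate.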
gsp ag: gsp mutant agonism; gsp mutant cells, cAMP HTRF, 30 min; control for the full effect not named in the record; Potency, µM (series often up to 76.9 µM), inactives show top-dose activation (cAMP increase), actives largely listed as activators; actives 0.13% (n = 340,000); active = well fitted activation curve with a large enough effect; inconclusive = small, poorly fitted or top-dose-only effect, or another doubt; inactive = no such curve, though single readings can be large or run the other way; cell line not stated here;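 also: phosphodiesterase inhibitor Ro 20-1724 added with compounds to block cAMP breakdown; potency is read from the fitted curve at half-maximal effect; nearly all actives have a fitted effect of over 60% in size; about a fifth of the inactives were tested at one dose only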
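Cells stably selected in G418 were plated at 2000/well, grown 16-24 hr, then given compounds in DMSO with the PDE inhibitor […] (300 uM solution added) for 30 min at 37C; cAMP was read by HTRF.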
Menin-MLL FL inh: menin-MLL binding inhibition, fluorescein peptide; FP activity change, % at 61.4 µM; 290,000 tested, under 10 active; Fluorescence polarization, fluorescein-MLL peptide displacement from menin; inconclusive = falling polarisation curve, or a change in total fluorescence; inactive = total fluorescence flat and polarisation flat or rising; no compound was filed as active; the % refers to the polarisation; negative = inhibition;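 also: % of control where 0% means no effect; inhibitors lower the polarisation; unlabelled MLL peptide was the positive control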
ClpP mod: qHTS Assay for Activators of ClpP; ATP-dependent Clp protease proteolytic subunit (Bacillus subtilis (strain 168)), P80244; Potency, µM (titrated, usually from 57.5 µM), inactives show at the highest dose activity change, negative = active; actives 1.9% (n = 340,000); purified B. subtilis ClpP, FRET peptide cleavage, 20 min; active = well fitted falling curve with a large enough effect; inconclusive = small, poorly fitted or top-dose-only effect; inactive = no such curve, though single readings can be large or run the other way; also: potency is read from the fitted curve at half-maximal effect; the source files actives as falling curves though it sought activators and does not explain the sign; nearly all actives have a fitted effect of over 65% in size; many hits overshoot -100%
Target sequence (P80244 whole entry, looked up): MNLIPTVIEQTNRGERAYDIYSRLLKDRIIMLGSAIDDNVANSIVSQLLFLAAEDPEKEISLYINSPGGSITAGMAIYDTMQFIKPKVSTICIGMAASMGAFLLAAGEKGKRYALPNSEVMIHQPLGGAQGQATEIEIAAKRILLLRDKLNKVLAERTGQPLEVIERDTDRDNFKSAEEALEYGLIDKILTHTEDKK
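Purified B. subtilis ClpP, 10 microg/mL final in Tris/HCl pH8 with KCl, BSA, glycerol and Tween-20, cleaved an Abz/nitrotyrosine-quenched decapeptide. Fluorescence (ex 320, em 430) was read at 0 and 20 min at room temperature. Delta was normalized to 5.8 microM ADEP and DMSO/no-enzyme controls.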
gsp antagonist: antagonists of gsp mutant (McCune-Albright syndrome); gsp-mutant cells, cAMP HTRF, 30 min; control for the full effect not named in the record; Potency, µM (series often up to 76.9 µM), for the others: at the top dose activity change, negative = inhibition, usual class: inhibitors; actives 0.4% (n = 340,000); AID 624288; active = falling curve of any shape with a large fitted effect; inconclusive = falling curve, mostly with a smaller effect; inactive = flat or rising curve; cell line not stated here;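 also: intracellular cAMP measured with PDE inhibitor Ro 20-1724 present during compound exposure; potency is read from the fitted curve at half-maximal effect; % is scaled to controls: 0 for no effect and ±100 for the full control effect; nearly all actives have a fitted effect of over 65% in size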
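Measurement of cellular cAMP by homogeneous time-resolved fluorescence following a 30 min compound exposure at 37C. The PDE inhibitor […] was present throughout; the assay buffer was DPBS with 0.05% BSA and 0.005% Tween 20.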
Active calls of the source: *; ? = inconclusive; · = not tested or not shown; & = joins results of further samples; [ ] = another dose, or the depositor's remark. Not a hit list (roughly 5.1% active in at least one column).

SMILES	TRPV1 potentiator	D2 potentiator	Sfp PPTase inh	gsp ag	Menin-MLL FL inh	ClpP mod	gsp antagonist
Cc1ccc(S(=O)(=O)Nc2nc(C)c(NC(=O)Nc3ccc(Cl)cc3Cl)s2)cc1	2	-1	35µM*	-31%[inhibitor]	8.1	-2.9%	-21%
O=C(COC(=O)c1cccnc1Cl)Nc1ccc2c(c1)OCCO2	-12	0	16%	11%	-0.9	·	-3%
COC(=O)c1ccc(CSc2n[nH]c(-c3ccccc3)n2)o1	4	-11	-14%	-15%	-2.0	-0.7%	-1%
CCN(CC)S(=O)(=O)c1ccc(F)c(C(=O)NCCC(C)C)c1	-24	2	4%	-24%	-0.1	1.3%	-8%
CC(=O)N1CCc2cc(S(=O)(=O)Nc3ccc(C)cc3C)ccc21	7	-11	7%	-23%	-4.0	0.4%	-9%
CCc1cc(C(c2ccncc2)N2CCN(C)CC2)c(NC(=O)c2ccccc2)s1 (stereo not given)	6	-13	-17%	-60%[inhibitor]	-0.5	0.5%	-5%
COC(=O)CNC(=O)c1cc(OC)cc(OC)c1	3	21	1%	-2%[15.4 µM]	-0.1	-3.1%	5%
O=[N+]([O-])c1cccc(/C=N/Nc2cc(N3CCOCC3)ncn2)c1	-4	-9	11%	-3%	2.2	1.1%	3%
CCCc1cc(N2CCCC(C(=O)NCc3ccc4c(c3)OCO4)C2)n2ncnc2n1 (stereo not given)	11	6	13%	-4%	4.0	-2.0%	-17%
CCOCC(=O)Nc1nc2ccc(S(C)(=O)=O)cc2s1	-2	-3	?	-44%[inhibitor]	1.3	-0.9%	6%
CN(C(=O)c1cccc(Nc2ccc(-c3ccc4c(c3)OCCO4)nn2)c1)C1CCCCC1	-9	10	18%	?	6.9	-4.1%	?
CNC(=O)N(O)C1N(/N=C/c2c(F)cccc2Cl)C(=S)SC1(C)C (stereo not given)	-7	0	0%	-7%	-6.2	-2.0%	8%
CC(=NCC1CCCO1)c1c(O)[nH]c(=O)[nH]c1=O (stereo not given)	1	-12	4%	6%	0.0	-2.7%	-8%
CSc1nc2n(n1)C(c1cccs1)C1=C(CCCC1=O)N2 (stereo not given)	3	24	7%	19%[15.4 µM]	-2.0	·	-45%
COc1ccc(C(=O)OC(C)C(=O)NCC2CCCCC2)cc1S(=O)(=O)N1CCOCC1 (stereo not given)	-2	-3	·	3%	·	0.4%	-5%
O=S(=O)(c1cnccc1N1CCN(CCO)CC1)N1CCCC1	·	-14	·	11%	·	-3.3%	·
O=C(N/N=C/c1cc2c(cc1Br)OCO2)c1cc2ccccc2o1	-6	-54	-22%	7%	-0.1	4.2%	?
COc1ccc([C@@H]2CC=C(C(=O)O)[C@H](c3ccccc3)N2S(=O)(=O)c2ccc(C)cc2)cc1OC	10	0	·	4%	·	-4.2%	-6%
CCOC(=O)C1CCCN(C(=O)CSc2ccccc2)C1 (stereo not given)	-7	-6	4%	-60%[inhibitor]	-1.0	2.2%	17%
CCN(CC)S(=O)(=O)c1ccc(N2CCOCC2)c(NC(=O)CC2OC(=O)c3ccccc32)c1 (stereo not given)	-4	-5	·	39%[15.4 µM]	·	0.7%	19%

Ordered by value in D2 potentiator (falling): some entries from above
molecule	D2 potentiator	Sfp PPTase inh	gsp ag	Menin-MLL FL inh	gsp antagonist
CN(C(=O)c1cccc(Nc2ccc(-c3ccc4c(c3)OCCO4)nn2)c1)C1CCCCC1	10	18%	?	6.9	?
CNC(=O)N(O)C1N(/N=C/c2c(F)cccc2Cl)C(=S)SC1(C)C (stereo not given)	0	0%	-7%	-6.2	8%
CC(=NCC1CCCO1)c1c(O)[nH]c(=O)[nH]c1=O (stereo not given)	-12	4%	6%	0.0	-8%

The list goes on:
SMILES	TRPV1 potentiator	D2 potentiator	Sfp PPTase inh	gsp ag	Menin-MLL FL inh	ClpP mod	gsp antagonist
O=C(O)c1ccc(S(=O)(=O)N2CCCCCC2)cc1	5	-22	-1%	2%	1.1	0.5%	-6%
Cc1onc(-c2ccccc2Cl)c1C(=O)N1CCOC12CCN(c1cccc(F)n1)CC2	-12	-3	20%	-22%[15.4 µM]	?	·	2%
CCC(C)(C)NC(=O)C(c1ccc(F)cc1)N(CCOC)C(=O)CCC(=O)Nc1nccs1 (stereo not given)	8	-4	19%	-28%	0.2	·	6%
Cc1ccnc(NC2(C(F)(F)F)N=C(c3ccccc3)NC2=O)c1 (stereo not given)	8	-5	14%	-14%	0.8	-0.6%	4%
Cc1ccc(NC(=O)CSc2nnc(-c3cnccn3)n2Cc2ccco2)cc1C	-3	-34	-39%	-1%	6.1	0.4%	-1%
CN(C)c1ncnc2c1C(c1ccccc1)C(C)(C)O2 (stereo not given)	·	-2	·	-1%	·	32µM*	-2%
CCCCCc1c(C)nc(NCc2ccccc2)[nH]c1=O	25	-5	1%	-20%	-0.2	0.3%	0%
Cc1cc(OCC(=O)NC(Cc2ccc(Cl)cc2)C(=O)O)c2c(C)c(C)c(=O)oc2c1 (stereo not given)	2	-37	29%	·	-9.7	4.5%	-4%
O=C(CSc1ncnc2ccccc12)N1CCCC1	8	-11	25%	19%	2.0	-2.8%	7%
Cc1oc(=O)c(NC(=O)c2cccc(Cl)c2)cc1C(=O)c1ccccc1	·	-20	8.9µM*	-4%	4.0	-1.7%	8%
CCCCc1ccc(NS(=O)(=O)c2cccc(C(=O)N3CCNC(=O)C3)c2)cc1	-6	5	·	-5%	·	-1.4%	2%
CCCc1nnc(NC(=O)c2c(O)c3cccc4c3n(c2=O)CCC4)s1	-9	·	5%	·	-0.7	-23%	·
O=C(NCc1ccco1)C(c1ccncc1)N(C(=O)Cn1nnc2ccccc21)c1ccccc1 (stereo not given)	22	-3	18%	24%	-3.7	·	-7%
O=C(Nc1ccc(F)cc1)C(Sc1nc2ccccc2[nH]1)c1ccccc1 (stereo not given)	-6	-22	-7%	-54%[inhibitor]	·	-2.6%	?
Cc1nnc(SCc2ccc(C(=O)O)cc2)s1	-4	-8	5%	-4%	-1.6	-0.9%	-1%
O=C(CCN1C(=O)c2ccccc2C1=O)Nc1nc2ccccc2s1	1	2	11%	-2%[15.4 µM]	-0.8	·	0%
O=C(Cc1csc(-c2ccccc2)n1)NCc1ccc(F)cc1	-7	-8	6%	1%[15.4 µM]	3.3	1.0%	12%
Cc1ccc(-n2nnnc2SCc2nnc(-c3ccccc3Br)o2)cc1	-1	3	-10%	-54%[inhibitor]	4.1	-1.7%	-11%
O=C(NC1CCCCC1)C(c1ccc(F)cc1)N(C(=O)c1csnn1)C1CC1 (stereo not given)	-11	-3	33%[activator]	-14%	1.3	·	-11%
Cc1ccc(/C=N/NC(=O)CNC(=O)COc2ccc(Cl)cc2)o1	2	-3	-3%	-63%[inhibitor]	-3.5	0.3%	11%
Cc1c(Cl)c([N+](=O)[O-])nn1CC(=O)NC1CCCCC1	7	-9	12%	?	3.6	0.7%	9%
COc1cc(/C=N/c2oc(C)c(C)c2C#N)cc(Br)c1O	4	3	-2%	19%	?	-0.2%	-12%
CCCSc1ccc([C@H]2N[C@@](Cc3ccccc3)(C(=O)OC)[C@H]3C(=O)N(C)C(=O)[C@@H]23)cc1	·	-12	·	-41%	·	-4.6%	-18%
CCC(=O)N1CCc2cc(S(=O)(=O)NC(C(=O)NC(C)c3ccccc3)C(C)C)ccc21 (stereo not given)	0	-6	-12%	4%	-0.1	2.5%	16%
Cn1ccnc1Sc1nc2c(c(=O)n(C)c(=O)n2C)n1C	6	-8	3%	?	-3.1	0.2%	34%[activator]
O=C(NNC(=O)c1ccc2ccccc2c1)c1cccc(F)c1	·	0	·	-26%	·	·	5%
NC(=O)CC(NC(=O)Cc1cccc2ccccc12)c1ccc(N2CCCCCCC2)c([N+](=O)[O-])c1 (stereo not given)	16	-8	-9%	-5%	-11	0.6%	50µM*
Cc1cccc(Oc2nc(-c3cccc([N+](=O)[O-])c3)nc3ccccc23)c1C	8	-11	5%	0%	-6.0	-1.1%	4%
CC1(C)C2CCC1(CS(=O)(=O)NCCc1c[nH]c3ccccc13)C(=O)C2 (stereo not given)	3	-3	3%	9%	1.3	·	-1%
Cc1ccc(O)c(NC(=O)C2CCCN2C(=O)OCc2ccccc2)c1 (stereo not given)	-2	-10	9%	-54%[inhibitor]	4.6	0.0%	-1%
O=C(CSc1nc2ccccc2n1S(=O)(=O)c1ccccc1)N1CCCC1	-6	-8	16%	0%	4.8	0.6%	8%
COc1cc2nc(CN3CCOCC3)n(CC(=O)N3CCCCCC3)c(=O)c2cc1OC	-9	4	19%	5%[15.4 µM]	1.2	·	-1%
COc1cc(C(c2sc3nc(C)nn3c2O)N2CC(C)CC(C)C2)cc(OC)c1OC (stereo not given)	-4	1	11%	-107%	6.1	1.2%	5%
Fc1ccccc1CNCc1ccc2c(c1)OCO2	-17	-33	16%	-21%	-2.5	-0.5%	8%
Cc1ccnc(NS(=O)(=O)c2cc(-c3cc(C)no3)ccc2C(C)C)c1	-15	-5	-4%	2%	-5.0	3.9%	-4%
CC1CCC(C(C)C)C(OC(=O)CSc2n[nH]c(=O)[nH]c2=O)C1 (stereo not given)	-26	-13	-1%	7%	-2.5	-2.4%	-24%
Cc1ccc(C(=O)c2oc3ccc(Cl)cc3c2NC(=O)CN2CCN(C)CC2)cc1	-17	-12	-28%	19%	-2.3	-0.3%	16%
Cc1cc(C)cc(NS(=O)(=O)c2cc3[nH]c(=O)c(=O)[nH]c3cc2C)c1	4	-5	4%	?	-0.4	-8.4%&-23%	3%
CC(=O)Nc1ccc(NC(=O)Nc2cccc(C)c2C)cc1	0	-6	-7%	11%[15.4 µM]	-3.1	·	-1%
CCCN1C/C(=C/c2ccc3c(c2)OCO3)C(=O)/C(=C/c2ccc3c(c2)OCO3)C1	-6	-2	40µM*	14%	1.7	-7.2%	4%
CCOC(=O)c1cc(-c2ccccc2)sc1N	1	-9	22µM*	16%[15.4 µM]	-1.3	-2.6%	-7%
COc1ccccc1Nc1ncnc2ccccc12	26	-3	-3%	-16%	3.6	0.1%	-4%
CCn1c(SCC(=O)Nc2ncc(C(F)(F)F)cc2Cl)nnc1-c1ccccc1	?	2	13%	2%	9.8	-0.6%	-4%
